# Compound activity deposited in PubChem BioAssay by National Center for Advancing Translational Sciences (NCATS).
# TRPML1 ag – activates the human TRPML1 channel; 0.12% of 410,000 active; Q9GZU1; AID 624414; TRPML1-expressing cells, Ca2+ dye fluorescence, FDSS; host cell line not named in the record; reference of the full effect not given here; activation, % (no concentration beside the values); in the data active = activation above about 50%; inconclusive = about 30% to 50%; inactive = below about 30%; further: 0% is about no effect; the text of the record puts the active cut at 80%
# Target sequence (Q9GZU1 whole entry, looked up): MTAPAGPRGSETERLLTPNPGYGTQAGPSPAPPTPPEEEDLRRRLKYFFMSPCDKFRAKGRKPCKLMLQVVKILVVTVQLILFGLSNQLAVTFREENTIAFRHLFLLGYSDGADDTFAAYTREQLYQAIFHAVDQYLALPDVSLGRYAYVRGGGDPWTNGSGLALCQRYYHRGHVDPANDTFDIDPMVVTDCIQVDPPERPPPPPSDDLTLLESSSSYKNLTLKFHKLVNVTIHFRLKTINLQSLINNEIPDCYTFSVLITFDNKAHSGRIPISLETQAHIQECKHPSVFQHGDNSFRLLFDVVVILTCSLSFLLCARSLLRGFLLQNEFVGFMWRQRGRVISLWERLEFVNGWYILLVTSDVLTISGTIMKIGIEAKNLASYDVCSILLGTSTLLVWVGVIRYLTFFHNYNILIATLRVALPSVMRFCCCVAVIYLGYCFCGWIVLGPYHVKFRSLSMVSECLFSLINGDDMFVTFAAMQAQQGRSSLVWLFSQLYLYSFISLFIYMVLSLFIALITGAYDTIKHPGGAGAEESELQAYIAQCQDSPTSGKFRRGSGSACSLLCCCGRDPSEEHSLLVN
#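 Tetracycline-induced TRPML1-DL cells are seeded and incubated overnight before loading with a no-wash Ca2+ dye and quencher. Agonist activity is taken from the 110 s fluorescence read following compound pin-transfer on an FDSS, before EC80 54-4 challenge.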
# TRPML1 inh – blocks the human TRPML1 channel; activity change, negative = inhibition, % (test concentration not listed); 0.02% of 390,000 active; TRPML1-inducible cells, Ca2+ dye fluorescence, FDSS; stronger effect = lower value; inhibition of EC80 agonist-evoked calcium signal; AID 624415; in the data active means activity change below about -50%; inconclusive means about -30% to -50%; inactive means above about -30%;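 further: stimulus is agonist 54-4 at its EC80 concentration; on the % scale 0 is the no-effect control and ±100 the full control effect; compound concentration not given in the record; the text of the record puts the active cut at -80%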
#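 Calcium fluorescence in TRPML1-DL cells induced overnight with Tet: a 110 s read after compound pin addition, then a 110 s antagonist read after challenge with 54-4 at 4 uM final (EC80).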
# An asterisk follows results filed as active.
# Value order: TRPML1 ag, TRPML1 inh
- COc1ccc(C2/C=C\CN(C(=O)CC(C)(C)C)C(C)C(=O)N2Cc2ccc(F)cc2)cc1 (stereo not given)
  1.2, 38.1
- COc1ccc(OC)c(-c2noc(CSc3nnc(Cc4ccccc4)n3-c3cccc(C)c3)n2)c1
  2.6, 41.7
- Cc1ccc(-c2cc(C(=O)NCc3ccccc3Cl)c3ccccc3n2)cc1C
  1.2, 12.7
- Cc1ccc(SCC(CC(C)C)N2CCN(CCc3ccccc3)CCC2=O)cc1 (stereo not given)
  2.6, 35.0
- O=C(CCC(=O)N1CC2CCCN2c2ccccc21)NCc1ccccc1Cl (stereo not given)
  1.8, 15.2
- CCOC(=O)c1c(NC(=O)c2cc3nc(-c4ccc(OC)cc4)cc(C(F)(F)F)n3n2)sc2c1CCC(C)C2 (stereo not given)
  0.9, 12.8
- COc1ccccc1OCC(=O)NC1CC(=O)N(c2ccc3c(c2)OCCO3)C1 (stereo not given)
  0.1, 34.7
- O=C(NCc1ccco1)c1ccc2c(c1)N(Cc1ccccc1F)C(=O)c1ccccc1S2(=O)=O
  0.9, 5.1
- COc1ccccc1N1CCN(c2cc(C)nc3nc(-c4ccc(C)cc4)nn23)CC1
  -0.2, -5.6
- CCOC(=O)c1c(C)[nH]c(C)c1S(=O)(=O)NCC(=O)Nc1cccc(SC)c1
  -1.2, -15.0
- CCCNC(=O)c1ccc(Cn2c(=O)c3cccn3c3cccnc32)cc1
  0.0, -10.3
- O=S(=O)(NCc1ccc(F)cc1)c1ccc2[nH]c3c(c2c1)CCCC3
  1.9, 9.0
- CCc1ccccc1NC(=O)C1=CC(c2ccc3c(c2)OCO3)=NS(=O)(=O)N1C
  1.5, 2.0
- CCOc1ccc(S(=O)(=O)c2cn(Cc3cc(C)ccc3C)c3ccc(OCC)cc3c2=O)cc1
  1.1, 31.3
- CCOc1ccc(CNS(=O)(=O)c2cc(-c3cc(C)no3)ccc2C)cc1OC
  -0.1, -9.0

# 4 entries from above in a different format.
CCCNC(=O)c1ccc(Cn2c(=O)c3cccn3c3cccnc32)cc1
  TRPML1 ag: 0.0 | TRPML1 inh: -10.3

O=S(=O)(NCc1ccc(F)cc1)c1ccc2[nH]c3c(c2c1)CCCC3
  TRPML1 ag: 1.9 | TRPML1 inh: 9.0

CCc1ccccc1NC(=O)C1=CC(c2ccc3c(c2)OCO3)=NS(=O)(=O)N1C
  TRPML1 ag: 1.5 | TRPML1 inh: 2.0

CCOc1ccc(S(=O)(=O)c2cn(Cc3cc(C)ccc3C)c3ccc(OCC)cc3c2=O)cc1
  TRPML1 ag: 1.1 | TRPML1 inh: 31.3

# (cont.)
# Value order: TRPML1 ag, TRPML1 inh
- Cc1ccc2oc3c(c(=O)c2c1)C(c1ccc(O)cc1)N(CCCN(C)C)C3=O (stereo not given)
  0.8, -9.7
- COc1ccc(Nc2oc(/C=C/c3cc(OC)c(OC)c(OC)c3)nc2C#N)cc1
  1.3, 2.3
- COc1ccc(C2C=C(c3ccccc3)Nc3nc(NC(=O)/C=C/c4ccccc4)nn32)cc1 (stereo not given)
  -0.1, 10.6
- COc1ccccc1CNC(=O)c1cn(C)c2ccc(S(=O)(=O)N3CCC(C)CC3)cc2c1=O
  -0.4, -2.7
- COC(=O)c1ccc(NC(=O)CN(Cc2ccccc2)S(=O)(=O)c2ccc(Cl)cc2)cc1
  3.4, -2.0
- COc1ccc(CNC(=O)c2ccc(NC(=O)N3CCSc4ncccc43)cc2)cc1OC
  1.2, 2.8
- CN(C)c1ccc(CNC(=O)CCCn2ccc3cc(S(=O)(=O)N4CCCC4)ccc32)cc1
  -0.4, 36.0
- Cc1oc2ccc(O)c(CN3CCOCC3)c2c1C(=O)Nc1ccc(C(C)C)cc1
  -1.0, 38.2
- Cc1cccc2c1-c1sc(C(=O)NCc3ccc(Cl)cc3)cc1CO2
  0.9, -18.4
- COc1ccc(CNC(=O)CC(c2ccc(OC)cc2)N2Cc3ccccc3C2=O)cc1 (stereo not given)
  -0.8, -10.1
- Cc1ccc(C)c(NC(=O)CN2C(=O)C(C)(C)c3ccccc32)c1
  -0.3, -13.4
- COc1ccc(-c2nc3scc(CCNS(=O)(=O)c4ccc(F)cc4F)n3n2)cc1OC
  1.3, 10.7
- Cc1ccc(CNC(=O)CCCCn2c(=O)c3ccccc3n(Cc3ccc(Cl)cc3)c2=O)cc1
  0.3, 0.2
- COc1cccc(OC)c1C(=O)NCCc1csc(-c2ccc(Cl)cc2)n1
  1.0, -26.3
- Nc1c(C(=O)Nc2ccc(Cl)c(C(F)(F)F)c2)sc2nc(-c3ccncc3)ccc12
  0.3, 26.4
- COc1cccc(CNC(=O)c2ccc3nc(CCc4ccccc4)oc3c2)c1OC
  0.3, -1.9
- CC(C)OCCCNC(=O)c1ccc(Cn2c(=O)c3cccn3c3cccnc32)cc1
  2.4, 13.1
- CC1CCN(c2ccc(-c3cccc(NS(=O)(=O)c4cccs4)c3)nn2)CC1
  1.6, 22.9
- CCc1ccc(NC(=O)c2cnc3c(-c4ccccc4)c(C)nn3c2C)cc1
  0.8, -3.8
- COCCNC(=O)CCn1c(=O)c2cc(OC)c(OC)cc2n(CC(=O)Nc2ccc(F)c(Cl)c2)c1=O
  -0.4, -1.7
- COc1cccc(-c2cc(C(F)(F)F)n3ncc(C(=O)OC(C)C)c3n2)c1
  -0.7, -2.7
- CCCCN(CC)CCCNC(=O)CS(=O)(=O)Cc1nc(-c2ccc(C)cc2)oc1C
  -0.6, 6.2
- COc1ccc(Cn2ccn(Cc3cccc(C)c3)c(=O)c2=O)cc1
  1.3, 4.3
- COc1ccc(S(=O)(=O)NCCc2csc3nc(-c4ccc(Cl)cc4)nn23)cc1C
  0.2, 17.5
- COc1ccc(OC)c(CNS(=O)(=O)c2cc(-c3onc(C)c3C)ccc2C)c1
  2.5, 29.8
- Cc1ccc(CSC2=Nc3ccccc3C3=NC(CC(=O)NC4CCCCC4)C(=O)N23)c(C)c1 (stereo not given)
  -0.5, 3.2
- Cc1ccc(C)c(NC(=O)c2cc(S(=O)(=O)NCCc3ccccc3)ccc2F)c1
  1.5, 18.5
- CCc1ccc(NC(=O)C(C)n2nnc3sc(-c4ccccc4)cc3c2=O)cc1 (stereo not given)
  1.4, -6.1
- C#CCn1c(C2CC(=O)N(c3ccc(OC)cc3)C2)nc2ccccc21 (stereo not given)
  -0.4, 20.3
- O=S(=O)(NCCS(=O)(=O)N1CCN(c2cccc(Cl)c2)CC1)c1ccc(F)cc1
  2.3, -10.8
- O=C(Cc1cccs1)NC1CC(=O)N(c2ccccc2)C1 (stereo not given)
  0.0, 6.1
- COC(=O)c1ccccc1NC(=O)C1CCCN(C(=O)c2cnn(-c3ccc(F)cc3)c2-n2cccc2)C1 (stereo not given)
  2.7, -1.4
- Cc1ccc(N2CCN(C(=O)Cc3c(C(=O)O)c(C)cn3C)CC2)c(C)c1
  -0.8, -5.2
- COCCCN1C(=O)c2[nH]nc(-c3ccccc3O)c2C1c1ccc(OC)cc1 (stereo not given)
  1.8, -4.2
- COc1cc(C2CC(=O)N(Cc3ccc(F)cc3)c3ccccc3S2)cc(OC)c1OC (stereo not given)
  3.5, 47.4
- COC(=O)c1ccc(OCC2c3cc(OC)c(OC)cc3CCN2C(=O)c2ccc(F)cc2)cc1 (stereo not given)
  2.1, 10.8
- O=C(CSCc1cc(=O)c2ccccc2[nH]1)Nc1cccc(C(F)(F)F)c1
  0.7, -0.7
- COc1ccccc1NC(=O)N1CCOc2ccccc21
  3.1, -15.3
- Cc1ccc2c(CNC3CCCC3)c(C(=O)O)n(Cc3ccc(F)cc3)c2c1
  0.3, -10.0
- Cc1cccc(NC(=O)c2c(NC(=O)c3ccco3)sc3c2CCC(C(C)(C)C)C3)c1 (stereo not given)
  -0.1, 4.2
- COc1ccccc1CNC(=O)c1cnn(-c2ccc(F)cc2F)c1C1CCN(C(=O)OC(C)(C)C)CC1
  0.8, -22.7
- CCCCn1c2ccccc2c2nnc(SCC(=O)Nc3ccc(NC(C)=O)cc3)nc21
  -0.9, 7.3
- CCOc1ccc(S(=O)(=O)NCCc2csc3nc(-c4ccc(OC)c(OC)c4)nn23)cc1
  2.2, 0.6
- COc1ccc(C(=O)O)cc1Nc1nc2ccc(C)cc2n2cnnc12
  0.2, -28.9
- CCOC(=O)c1noc2nc(C)n(CC(=O)Nc3cccc(OC)c3)c(=O)c12
  -1.0, 12.6
- COc1cc(OC)c(NS(=O)(=O)c2cc3c(cc2C)NC(=O)CO3)cc1Cl
  1.8, -8.3
- COc1ccc(CCNC(=O)CCS(=O)(=O)c2cc(Br)cc3c2N(C(C)=O)CC3)cc1OC
  0.1, 16.0
- CCCCN(C)C(=O)Cn1cnc2sc(C)c(S(=O)(=O)N3CCC(C)CC3)c2c1=O
  0.5, 1.8
- Clc1ccc(CN2CCC(CNc3ncnc4onc(-c5ccc(Cl)cc5)c34)CC2)cc1
  -0.8, 11.9
- COc1ccc(OC)c(NC(=O)c2cc(C3CC3)nc3c2c(C)nn3-c2ccc(C)cc2)c1
  -0.7, 26.0
- CCN1CCN(Cc2c(O)ccc3oc(C)c(C(=O)Nc4cccc(Cl)c4C)c23)CC1
  0.5, -6.7
- Cc1ccc(C)c(N2CCN(c3ncnc4c3nc3n4CCCC3)CC2)c1
  3.2, 34.1
- CCn1cc(C(=O)NCc2ccccc2Cl)c(=O)c2cc(S(=O)(=O)N3CCCCCC3)ccc21
  -1.1, -1.0
- CCC(=O)N1CCc2cc(CNC(=O)Nc3cc(OC)c(OC)c(OC)c3)ccc21
  0.3, -11.6
- Cc1ccc(Nc2nc3ccc(C)cc3nc2-n2nc(C)cc2C)c(C)c1
  -0.3, 21.0
- CN(C)c1ccc(CNC(=O)C2CCCN(S(=O)(=O)c3ccc4c(ccn4C)c3)C2)cc1 (stereo not given)
  1.6, -3.2
- O=C(CCCn1c(=O)[nH]c2ccc(Br)cc2c1=O)N1CCN(c2cccc(Cl)c2)CC1
  0.3, 5.3
- Cc1ccc2onc(CC(=O)N(C)c3ccccc3)c2c1
  -0.6, -4.3
- COC(=O)c1c(NC(=O)CCCOc2ccc(C(C)(C)C)cc2)sc2c1CCC(C)C2 (stereo not given)
  0.1, -19.6
- Cc1ccc(C(C)C)c(OCC(=O)Nc2c(C(=O)c3ccc(F)cc3)oc3ccccc23)c1
  1.8, -6.0

# Among those listed so far, these contain a CF3 group.
# Value order: TRPML1 ag, TRPML1 inh
- CCOC(=O)c1c(NC(=O)c2cc3nc(-c4ccc(OC)cc4)cc(C(F)(F)F)n3n2)sc2c1CCC(C)C2 (stereo not given)
  0.9, 12.8
- Nc1c(C(=O)Nc2ccc(Cl)c(C(F)(F)F)c2)sc2nc(-c3ccncc3)ccc12
  0.3, 26.4
- COc1cccc(-c2cc(C(F)(F)F)n3ncc(C(=O)OC(C)C)c3n2)c1
  -0.7, -2.7
- O=C(CSCc1cc(=O)c2ccccc2[nH]1)Nc1cccc(C(F)(F)F)c1
  0.7, -0.7

# (cont.)
# Value order: TRPML1 ag, TRPML1 inh
- CCOc1cccc(CC(=O)NCc2ccc3c(c2)CCN3C(=O)c2cccc(C)c2)c1OCC
  2.7, 31.2
- COc1ccc(S(=O)(=O)Nc2cccc(-c3ccc(N4CCCCCC4)nn3)c2)cc1F
  -0.3, 12.6
- CCOc1ccccc1NC(=O)Cn1c(=O)n(CC(=O)NCc2ccccc2Cl)c(=O)c2sccc21
  0.8, -21.5
- O=C(NCCc1csc(-c2ccc(F)cc2)n1)c1ccco1
  0.7, -9.3
- O=C(NCCCN1CCN(c2ccccc2F)CC1)C1COc2ccccc2C1 (stereo not given)
  0.5, 6.2
- Cc1ccccc1CNC(=O)C(=O)NCC(c1cccs1)S(=O)(=O)c1cccs1 (stereo not given)
  2.9, -5.9
- CCCN(CCC)C(=O)CSc1c2c(nc3ccc(Cl)cc13)CCCC2
  2.6, 19.7
- COc1ccc(-c2nc3scc(CCNS(=O)(=O)c4cc(F)ccc4OC)n3n2)cc1OC
  1.0, -0.1
- Fc1ccc(-c2ccc(CNCCSc3nnnn3-c3ccccc3)o2)cc1Cl
  2.5, 10.8
- CCS(=O)(=O)c1ncc(Cl)c(C(=O)NCc2ccc(OC)cc2)n1
  -0.7, -10.5
- Cc1ccc2cccc(NC(=O)c3ccc(C#N)cc3F)c2n1
  1.2, 37.2
- O=C(Nc1ccc2nc(SCCOc3ccccc3)sc2c1)c1ccc2c(c1)OCO2
  -0.4, -24.2
- CCn1cc(C(=O)N2CCN(c3cc(Cl)ccc3C)CC2)c2cc(OC)c(OC)cc2c1=O
  2.2, 64.7
- O=C(NCC(c1ccc2c(c1)OCO2)N1CCOCC1)c1ccccc1 (stereo not given)
  0.0, -11.1
- COc1ccc(CCNC(=O)c2cccc(-n3cnc4cccnc43)c2C)cc1OC
  2.0, -12.0
- COc1ccccc1NC(=O)N1CCN(Cc2nc3ccc(C)cc3o2)CC1
  -1.1, -1.0
- CCc1ccc(CNC(=O)c2nn(-c3ccc(C)c(C)c3)nc2CO)cc1
  4.7, 5.0
- Cc1ccc(CCNC(=O)c2cnc3c(-c4ccc(F)cc4)c(C)nn3c2C)cc1
  0.0, -12.8
- CCc1ccc(-n2nc(C)c3c(C(=O)NCCc4ccc(OC)c(OC)c4)cc(C)nc32)cc1
  2.6, 2.1
- CC(=O)c1ccc(Nc2cc(C)nc3nc(Cc4ccc(Cl)cc4)nn23)cc1
  -0.5, 12.0
- CCOC(=O)c1ccc(Nc2c(-c3ccc(O)cc3)nc3nc[nH]n23)cc1
  -0.3, -18.2
- Cc1ccc(S(=O)(=O)Nc2cccc(-c3ccc(N4CCCC4)nn3)c2)c(C)c1
  0.3, -13.1

# Some of the compounds tested; count on the stated rates, not on these rows.
